AF4-AF9 inh = MLL-AF4/AF9 protein interaction inhibition; hit rate 0.47% among 350,000; AlphaScreen, biotin-AF4 peptide binding to FLAG-AF9; inhibition, % at 10 µM; AID 651704;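 active = every replicate reaching a set inhibition limit, whatever the replicate mean, cut at about 25% in these data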;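 also: 0% = plate neutral control median and 100% = total signal loss; the record names both 10 and 1 µM as test concentration; the first replicate is given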
Target sequence (P42568 whole entry, looked up): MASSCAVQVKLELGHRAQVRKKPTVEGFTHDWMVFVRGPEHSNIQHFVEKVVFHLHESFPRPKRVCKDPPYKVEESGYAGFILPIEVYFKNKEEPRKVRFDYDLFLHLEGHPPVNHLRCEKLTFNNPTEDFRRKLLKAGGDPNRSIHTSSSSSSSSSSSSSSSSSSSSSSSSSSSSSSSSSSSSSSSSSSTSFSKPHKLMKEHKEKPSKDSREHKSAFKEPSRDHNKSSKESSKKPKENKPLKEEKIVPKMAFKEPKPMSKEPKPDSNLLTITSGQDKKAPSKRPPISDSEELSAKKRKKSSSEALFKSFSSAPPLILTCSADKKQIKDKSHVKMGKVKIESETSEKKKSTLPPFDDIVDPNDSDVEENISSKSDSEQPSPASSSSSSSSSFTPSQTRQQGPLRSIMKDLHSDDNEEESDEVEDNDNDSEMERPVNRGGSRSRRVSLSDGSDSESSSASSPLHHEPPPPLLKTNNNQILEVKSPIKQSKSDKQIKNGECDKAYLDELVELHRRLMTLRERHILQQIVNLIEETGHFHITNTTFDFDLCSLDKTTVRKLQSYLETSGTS
* hit, by the source's call; & = joins results of further samples. Only part of the results is shown; rates above refer to the full screens.

AF4-AF9 inh	Molecule
1.7	Cc1cccc(S(=O)(=O)N(C)C[C@H]2OCc3ccccc3-c3ccccc3C(=O)N([C@H](C)CO)C[C@H]2C)c1
-2.2	CN(C)CC#Cc1ccc([C@@H]2[C@H](CO)N3C(=O)CN(C(=O)c4cccc(F)c4)C[C@@H]23)cc1
0.6	CCCc1nc2cc(C)c(Br)c(C)n2c1CC1CCCCC1
-4.3	C[C@H]1CN([C@@H](C)CO)S(=O)(=O)c2ccc(C3=CCCCC3)cc2O[C@@H]1CN(C)C(=O)CN(C)C
3.6	O=C(Nc1ccc2c(c1)[C@@H]1C[C@@H](CC(=O)N3CCc4ccccc4C3)O[C@H](CO)[C@@H]1O2)c1ccc2c(c1)OCO2
-6.7	COc1ccc(CN(C)C[C@H]2OCCCC[C@@H](C)Oc3ccc(NC(=O)Nc4ccc(OC)cc4)cc3C(=O)N([C@H](C)CO)C[C@@H]2C)cc1
-2.0	O=C(Nc1ccc2c(c1)[C@H]1C[C@H](CC(=O)N3CCCCC3)O[C@H](CO)[C@H]1O2)c1cccnc1
-2.1	CCOC(=O)[C@]12CCCC=C1N(Cc1ccco1)C(=O)[C@H](CC(=O)N1CCSCC1)C2
4.0	C[C@H](CO)N1C[C@H](C)[C@H](CN(C)C(=O)CN(C)C)Oc2ncc(/C=C/c3ccccc3)cc2C1=O
-1.2	CO[C@@H]1CN(C)C(=O)c2ccc(NC(=O)C3CC3)cc2OC[C@@H](C)N(C(=O)CN(C)C)C[C@@H]1C
0.3	COc1ccc(Br)c(Cn2c(C)c(C(=O)NCc3cccc([N+](=O)[O-])c3)sc2=O)c1
8.1	C[C@@H]1CN([C@H](C)CO)S(=O)(=O)c2ccc(/C=C/c3ccccc3)cc2O[C@H]1CN(C)C(=O)NC1CCCCC1
1.6	C[C@@H]1CCCCO[C@@H](CN(C)C(=O)Nc2ccc(F)cc2)[C@@H](C)CN([C@@H](C)CO)C(=O)c2cc(NC(=O)CCCN(C)C)ccc2O1
3.8	COc1ccccc1C(NC(=O)C1CCN(CCOc2ccc3ccccc3c2)CC1)c1ccccn1 (stereo not given)
-1.5	O=C(C[C@H]1CC[C@H](NC(=O)C2CC2)[C@H](CO)O1)NCC1CC1
37*	COc1ccc(-c2ccc(C(=O)NCc3ccc(N4CCN(C)CC4)cc3)c3occc23)c(C)c1
3.3	COc1cccc(S(=O)(=O)N(C)C[C@H]2OCc3ccccc3-c3ccccc3C(=O)N([C@@H](C)CO)C[C@H]2C)c1
7.3	O=S(=O)(c1ccc(Cl)cc1)N1CCN(Cc2cccc(OCCO)c2)CC1
3.7	O=C(CCN1CCCCC1)N[C@@H]1CC[C@@H](CCn2cc(-c3ccc(F)cc3)nn2)O[C@H]1CO
-1.8	CO[C@H]1CN(C)C(=O)c2cc(NS(=O)(=O)CC(F)(F)F)ccc2OC[C@@H](C)N(Cc2cccnc2)C[C@H]1C
5.7	C[C@H](CO)N1C[C@H](C)[C@H](CN(C)S(=O)(=O)c2ccc(F)cc2)Oc2ccc(NC(=O)CCCCCC(=O)Nc3ccccc3N)cc2CC1=O
-2.5	COc1cccc(CNC(=O)C[C@@H]2CC[C@@H]3[C@@H](COc4ccc(NC(=O)c5cccs5)cc4C(=O)N3C)O2)c1
-1.8	C[C@@H]1CN([C@@H](C)CO)C(=O)c2cc(NC(=O)Nc3ccc(C(F)(F)F)cc3)ccc2O[C@H]1CN(C)C(=O)Nc1ccccc1
-1.2	O=C(C[C@H]1C=C[C@H](NC(=O)C2CCC2)[C@@H](CO)O1)NCc1ccncc1
-2.0	O=C(c1ccccc1F)N1CC(=O)N2[C@@H](CO)[C@H](c3ccc(C#Cc4ccc(F)cc4)cc3)[C@@H]2C1
-0.8	CO[C@H](CN(C)S(=O)(=O)c1ccc(C)cc1)[C@@H](C)CN(C(=O)Nc1ccccc1F)[C@H](C)CO
0.6	CNC[C@@H]1Oc2ccc(NC(=O)Nc3ccc4c(c3)OCO4)cc2CC(=O)N([C@@H](C)CO)C[C@@H]1C
-4.6	Cc1cc(C(=O)Nc2cccc3c2O[C@H](CN(C)Cc2ccc(-c4ccccc4)cc2)[C@@H](C)CN([C@H](C)CO)C3=O)n(C)n1
6.8&0.9	C/C=C/c1ccc(C2[C@H]3CNC[C@@H]2N3Cc2cc(OC)cc(OC)c2)cc1 (stereo not given in full)
0.1	O=C(C[C@@H]1C=C[C@H](NC(=O)Nc2cc(F)ccc2F)[C@@H](CO)O1)Nc1ccccc1
4.4	CCOC(=O)[C@]12CCCC=C1N(Cc1ccco1)C(=O)[C@H](CC(=O)N1CCC(c3ccccc3)CC1)C2
7.2	Cc1ccc(S(=O)(=O)Nc2ccc3c(c2)C(=O)N([C@H](C)CO)C[C@@H](C)[C@@H](CN(C)CC2CCCCC2)OCCCC[C@H](C)O3)cc1
0.5	CC(C)NC(=O)Nc1ccc2c(c1)C(=O)N([C@H](C)CO)C[C@@H](C)[C@@H](CN(C)C(=O)Nc1ccccc1)O2
1.4	Cc1noc(C)c1NC(=O)Nc1ccc2c(c1)C(=O)N(C)[C@H]1CC[C@H](CC(=O)N[C@H]3CCN(Cc4ccccc4)C3)O[C@@H]1CO2
1.1	COc1ccc2c3c([nH]c2c1)[C@@H](CO)N(C(=O)Nc1ccc(F)cc1)CC31CCN(S(=O)(=O)c2ccc(C)cc2)CC1
0.8	C[C@H](CO)N1C[C@H](C)[C@H](CN(C)Cc2cncnc2)Oc2ncc(/C=C/c3ccccc3)cc2C1=O
-1.4	CC1(Cc2ccccc2C#N)C(=O)Nc2ccc(OC(F)(F)F)cc21 (stereo not given)
0.7	C[C@@H]1CN([C@@H](C)CO)C(=O)c2cc(NS(=O)(=O)c3ccc(Cl)cc3)ccc2O[C@@H](C)CCCCO[C@@H]1CN(C)Cc1ccncc1
5.9	COc1ccccc1C#Cc1ccc2c(c1)[C@@H]1[C@@H](CCN1C(=O)c1cccc(F)c1)[C@H](CO)N2
-0.6	C[C@H](CO)N1C[C@H](C)[C@@H](CN(C)S(=O)(=O)c2ccc(F)cc2)Oc2ccc(NS(=O)(=O)c3cn(C)cn3)cc2C1=O
3.3	CCCC(=O)Nc1ccc2c(c1)C(=O)N(C)C[C@H](OC)[C@@H](C)CN(C(=O)c1ccncc1)[C@H](C)CO2
10	C/C=C/c1ccc2c(c1)O[C@@H](CN(C)Cc1ccccc1F)[C@@H](C)CN([C@H](C)CO)S2(=O)=O
-1.3	C[C@H]1CN([C@@H](C)CO)C(=O)c2cc(C3=CCCC3)cnc2O[C@H]1CN(C)C(=O)C1CCCCC1
-3.1	CO[C@@H]1CN(C)C(=O)c2cc(NS(=O)(=O)c3cn(C)cn3)ccc2OC[C@@H](C)NC[C@@H]1C
0.2	C[C@@H]1CCCCO[C@@H](CN(C)S(=O)(=O)c2ccc(Cl)cc2)[C@H](C)CN([C@@H](C)CO)C(=O)c2cc(NC(=O)NC3CCCCC3)ccc2O1
-1.5	C[C@@H]1CN([C@H](C)CO)S(=O)(=O)c2ccc(-c3cncnc3)cc2O[C@@H]1CN(C)Cc1cncnc1
-2.7	COc1ccc2c3c([nH]c2c1)[C@@H](CO)N(Cc1nccs1)CC31CCN(C(=O)C2CCC2)CC1
-3.1	O=C(NC[C@@H]1CC[C@H]2[C@H](CN2Cc2ccccc2C(=O)O)O1)c1ccc(F)cc1
-5.5	CCOc1cc(N2CCOCC2)c(OCC)cc1NC(=O)C(NC(=O)c1c(F)cccc1F)C(C)C (stereo not given)
1.3	O=C(C[C@H]1CC[C@@H](NS(=O)(=O)c2ccccc2)[C@@H](CO)O1)NCCN1CCCCC1

Part of the list above, with tabs.
smiles	AF4-AF9 inh
COc1ccccc1C#Cc1ccc2c(c1)[C@@H]1[C@@H](CCN1C(=O)c1cccc(F)c1)[C@H](CO)N2	5.9
C[C@H](CO)N1C[C@H](C)[C@@H](CN(C)S(=O)(=O)c2ccc(F)cc2)Oc2ccc(NS(=O)(=O)c3cn(C)cn3)cc2C1=O	-0.6
CCCC(=O)Nc1ccc2c(c1)C(=O)N(C)C[C@H](OC)[C@@H](C)CN(C(=O)c1ccncc1)[C@H](C)CO2	3.3
C/C=C/c1ccc2c(c1)O[C@@H](CN(C)Cc1ccccc1F)[C@@H](C)CN([C@H](C)CO)S2(=O)=O	10
C[C@H]1CN([C@@H](C)CO)C(=O)c2cc(C3=CCCC3)cnc2O[C@H]1CN(C)C(=O)C1CCCCC1	-1.3
CO[C@@H]1CN(C)C(=O)c2cc(NS(=O)(=O)c3cn(C)cn3)ccc2OC[C@@H](C)NC[C@@H]1C	-3.1
C[C@@H]1CCCCO[C@@H](CN(C)S(=O)(=O)c2ccc(Cl)cc2)[C@H](C)CN([C@@H](C)CO)C(=O)c2cc(NC(=O)NC3CCCCC3)ccc2O1	0.2
C[C@@H]1CN([C@H](C)CO)S(=O)(=O)c2ccc(-c3cncnc3)cc2O[C@@H]1CN(C)Cc1cncnc1	-1.5
COc1ccc2c3c([nH]c2c1)[C@@H](CO)N(Cc1nccs1)CC31CCN(C(=O)C2CCC2)CC1	-2.7
O=C(NC[C@@H]1CC[C@H]2[C@H](CN2Cc2ccccc2C(=O)O)O1)c1ccc(F)cc1	-3.1
CCOc1cc(N2CCOCC2)c(OCC)cc1NC(=O)C(NC(=O)c1c(F)cccc1F)C(C)C (stereo not given)	-5.5
O=C(C[C@H]1CC[C@@H](NS(=O)(=O)c2ccccc2)[C@@H](CO)O1)NCCN1CCCCC1	1.3

(continued)
AF4-AF9 inh	Molecule
-11	CO[C@H]1CN(C)C(=O)c2ccc(NS(C)(=O)=O)cc2OC[C@H](C)N(Cc2ccccn2)C[C@@H]1C
3.8	COc1cccc(-c2ccc3c(c2)O[C@H](CN(C)C(=O)C2CCCCC2)[C@@H](C)CN([C@H](C)CO)S3(=O)=O)c1
0.2	CC(=O)N1[C@H](CN(C(=O)c2cccc(F)c2)C(C)C)[C@H](c2ccccc2)[C@@H]1CO
2.8	C[C@H]1CN([C@@H](C)CO)C(=O)c2cccc(NC(=O)CCCCCC(=O)Nc3ccccc3N)c2O[C@H]1CN(C)C(=O)NC1CCCCC1
1.2	C[C@H]1CCCCO[C@H](CN(C)CC2CC2)[C@@H](C)CN([C@@H](C)CO)C(=O)c2cc(NC(=O)c3ccncc3)ccc2O1
7.6	COc1ccc(C#Cc2ccc([C@@H]3[C@H](CO)N4CCCCN(C)C[C@@H]34)cc2)cc1
-1.3	O=C(C[C@@H]1C[C@H]2c3cc(NC(=O)C4CCOCC4)ccc3O[C@H]2[C@H](CO)O1)NCc1ccccc1
-1.1	C[C@@H]1CN([C@@H](C)CO)C(=O)c2cc(-c3ccccc3F)cnc2O[C@@H]1CN(C)C(=O)C1CCC1
-4.7	C[C@@H](O)C#Cc1ccc([C@H]2[C@H](CO)N3CCCCN(S(=O)(=O)c4ccccc4)C[C@@H]23)cc1
-2.0	CC1(C(=O)NCc2cccc(Cl)c2)Cc2c(-c3ccccc3)ccnc2O1 (stereo not given)
-4.4	C[C@@H]1CCCCO[C@H](CN(C)C(=O)NC2CCCCC2)[C@@H](C)CN([C@H](C)CO)C(=O)c2cc(NC(=O)CCC(F)(F)F)ccc2O1
-3.0	Cc1noc(C)c1NC(=O)N1C[C@@H](O)COC[C@@H]2O[C@H](CC(=O)NCC3CCCCC3)CC[C@H]21
-16	O=C(NC[C@H]1[C@H](c2ccccc2)[C@@H](CO)N1Cc1ccccn1)C1CCCC1
-0.5	O=C(O)C[C@@H]1C=C[C@@H](NC(=O)Nc2ccccc2)[C@H](CO)O1
0.4	C[C@H](CO)N1C[C@H](C)[C@@H](CN(C)C(=O)c2ccccn2)Oc2ncc(-c3ccccc3F)cc2C1=O
-0.6	Cc1noc(C)c1NC(=O)N[C@H]1CC[C@@H](CC(=O)N2CCN(C)CC2)O[C@H]1CO
3.7	C[C@@H]1CN([C@@H](C)CO)C(=O)c2cc(NS(=O)(=O)c3ccc(Cl)cc3)ccc2O[C@@H](C)CCCCO[C@@H]1CN(C)C
-1.5	C[C@H]1CN([C@@H](C)CO)C(=O)Cc2cc(NS(=O)(=O)c3ccccc3)ccc2O[C@H]1CN(C)S(=O)(=O)c1cn(C)cn1
5.7	CCCCc1c(-c2ccc(Cl)cc2)ncn1CCc1ccccc1OC
-11	Cc1ccc(S(=O)(=O)Nc2cccc3c2O[C@@H](CN(C)C(=O)Nc2c(C)noc2C)[C@H](C)CN([C@@H](C)CO)C3=O)cc1
-1.9	O=C(C[C@@H]1CC[C@@H]2[C@H](COC[C@@H](O)CN2C(=O)c2ccc3c(c2)OCO3)O1)NC1CCCC1
-0.5	O=C(CCc1nc(-c2ccccc2)no1)NC1CCCCCC1
5.2	CCCC#Cc1ccc2c(c1)O[C@@H](CN(C)C(=O)C1CCC1)[C@H](C)CN([C@@H](C)CO)S2(=O)=O
0.8	CCCCCc1c(-c2ccc(Br)cc2)ncn1CCc1ccccc1OC
1.0	C[C@H]1CN([C@@H](C)CO)C(=O)c2cccc(NS(=O)(=O)c3cn(C)cn3)c2O[C@H]1CN(C)C(=O)Nc1cccc2ccccc12
0.0	COc1ccc(NC(=O)Nc2ccc3c(c2)C(=O)N([C@@H](C)CO)C[C@H](C)[C@H](CN(C)C(=O)Nc2ccc(OC)cc2)OCCCC[C@@H](C)O3)cc1
-1.1	C[C@@H]1CN([C@@H](C)CO)C(=O)c2cc(NC(=O)CCCN(C)C)ccc2O[C@@H]1CN(C)S(=O)(=O)c1cn(C)cn1
-0.6	CCC(=O)N1CCC2(CC1)CN(C(C)=O)[C@H](CO)c1[nH]c3cc(OC)ccc3c12
-0.6	O=C(C[C@@H]1CC[C@H]2[C@@H](COC[C@H](O)CN2S(=O)(=O)c2ccc(F)cc2)O1)NCCN1CCCCC1
0.2	CC(C)NC(=O)Nc1ccc2c(c1)C(=O)N(C)[C@H]1CC[C@H](CC(=O)NCC3CCCCC3)O[C@H]1CO2
3.7	CO[C@@H]1CN(C)C(=O)c2ccc(NC(C)=O)cc2OC[C@@H](C)N(C(=O)C2CCOCC2)C[C@@H]1C
3.8	CO[C@H]1CN(C)C(=O)c2ccc(NC(=O)c3nc4ccccc4s3)cc2OC[C@H](C)N(Cc2cccnc2)C[C@@H]1C
-2.5	C/C=C/c1ccc([C@H]2[C@@H](CO)N(Cc3ccccn3)[C@@H]2CNC(=O)CC)cc1
10	Cc1ccccc1-c1ccc([C@H]2[C@H](CO)N3CCCCN(CC4CC4)C[C@@H]23)cc1

High-throughput results as filed in PubChem BioAssay.
